PrP 5UTR inh = inhibition of PrP 5' UTR reporter expression; cell-based PrP 5' UTR mRNA reporter, plate reader; inhibition, % (concentration not given with the values); 340,000 compounds, 0.35% hits;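 active = every replicate at 50% or more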;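 also: 0 = median of the neutral control wells; tested in H4 reporter cells; numbers are from one replicate; inactives centre near -14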
Sa ugtP lethal = kills S. aureus RN4220 lacking UgtP | S. aureus RN4220 ugtP deletion, OD600 growth, 16 h; some inactives read as strong as hits | growth inhibition, % (test concentration not listed) | 330,000 compounds, 0.54% hits;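 active = z-score under -3 and OD600 up to 0.15 on both plates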;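 also: plate controls were untreated wells for no effect and antibiotic for full effect; wells of about 80 µL received 100 nL stock; the first replicate is given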
Sa RN4220 lethal = kills Staphylococcus aureus RN4220; S. aureus RN4220 growth, OD600, 16 h; inhibition, % (test concentration not listed); 330,000 compounds, 0.33% hits;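 active = z-score of -3 or lower and OD600 up to 0.18 on both plates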;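 also: plate controls were untreated cells for no effect and reference antibiotic for full effect; stock transfer was 100 nL into about 80 µL; one replicate is shown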
Autofluor counter = compound fluorescence in toxin protease inhibitor counterscreen; compound autofluorescence counterscreen, microsphere flow cytometry; stronger effect = higher value; fluorescence intensity (test concentration not listed); 360,000 compounds, 3.1% hits; AID 624483;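 active = at least 3 SD above the mean of all compounds, about 16000 in these data; inconclusive = too few beads counted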;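 also: 100 nL of 1 mM stock went into each well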
BJeLR lethal = kills HRASV12-expressing BJeLR cells; BJeLR (HRASV12) viability, CellTiter-Glo ATP luminescence, 48 h; reference of the scale not given here; inhibition, % (concentration not given with the values); AID 1554; 300,000 compounds, 0.17% hits;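 active = replicate mean above 50%; inconclusive = above 50% but judged a plate artefact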;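 also: 50 nL library stock added to about 25 µL; numbers are from one replicate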
Mtb hypoxia rep = inhibitors of hypoxia-regulated fluorescent reporter in Mycobacterium tuberculosis | M. tuberculosis hypoxia-regulated fluorescent reporter, fluorescence | fluorescence inhibition, % (concentration not given with the values) | 300,000 compounds, 0.1% hits | AID 1159583;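 active = 35 to 45% if threefold the growth effect, above 45% if 1.5-fold the growth effect; inactive = the rest, general growth blockers included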;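 also: wells of about 50 µL received 100 nL stock; 0% = vehicle wells and 100% = reference inhibitor wells; whole bacteria with a GFP reporter of the hypoxia response; strong numbers were not always called active; many hits fall short of the cut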
Mtb hypoxia rep growth = second read-out of Mtb hypoxia rep, no call of its own (marks repeat the call); growth inhibition, %; measured here: M. tuberculosis growth (absorbance);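 0% = vehicle and 100% = reference antibiotic; read after six days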
* marks the source's active call; other numbers are inactive results; ? = inconclusive; · = not tested or not shown.

The opening two entries, ahead of the listing:
no. | Compound | PrP 5UTR inh | Sa ugtP lethal | Sa RN4220 lethal | Autofluor counter | BJeLR lethal | Mtb hypoxia rep | Mtb hypoxia rep growth
1 | CCCSc1ccc(C2N[C@@](C)(C(=O)OC)C3C(=O)N(C)C(=O)C23)cc1 (some centres not stated) | · | 1.8 | 5.8 | · | · | 19.5 | 15.6
2 | O=c1[nH]c(SCc2ccc(F)cc2Cl)nc2ccccc12 | -17.3 | -16.4 | 9.1 | 2047 | 4.1 | 7.8 | 8.2

The whole of this part, from the start:
no. | Compound | PrP 5UTR inh | Sa ugtP lethal | Sa RN4220 lethal | Autofluor counter | BJeLR lethal | Mtb hypoxia rep | Mtb hypoxia rep growth
1 | CCCSc1ccc(C2N[C@@](C)(C(=O)OC)C3C(=O)N(C)C(=O)C23)cc1 (some centres not stated) | · | 1.8 | 5.8 | · | · | 19.5 | 15.6
2 | O=c1[nH]c(SCc2ccc(F)cc2Cl)nc2ccccc12 | -17.3 | -16.4 | 9.1 | 2047 | 4.1 | 7.8 | 8.2
3 | Cn1cccc1Cc1nnc(SCC(=O)Nc2ccc(F)cc2F)n1-c1ccc(F)cc1 | -1.2 | 3.5 | 4.9 | 6077 | 0.3 | · | ·
4 | CCc1ccc(NC(=O)c2cnc3n(c2=O)CCS3)cc1 | -103.3 | -9.7 | 9.3 | 5556 | 9.2 | 5.4 | -0.6
5 | c1ccc(Nc2nc3ccccc3[nH]2)nc1 | -45.2 | 0.7 | 20.0 | 4876 | -4.9 | · | ·
6 | C/C(Cn1nc([N+](=O)[O-])cc1C)=N\NC(=O)c1cccc(Br)c1 | -7.6 | · | · | 4766 | 2.0 | · | ·
7 | Cc1cccc(C(=O)N[C@H](C(=O)Nc2nc(C)cs2)C(C)C)c1 | 5.4 | -1.6 | 3.6 | 2476 | -10.9 | 10.0 | 11.8
8 | COC(=O)C(Cc1ccccc1)NC(=O)CCc1c[nH]c2ccccc12 (configuration not stated) | -20.9 | 1.4 | 1.1 | 3375 | 0.2 | 1.0 | 1.8
9 | O=C(c1cc2cc(F)ccc2[nH]1)N1CCC2(CC1)OCCO2 | -16.5 | 5.1 | 3.9 | 4527 | 4.3 | 1.2 | -5.1
10 | O=[N+]([O-])c1ccc(COc2ccccc2/C=N/O)cc1 | -35.9 | · | · | 2515 | 3.1 | · | ·
11 | NS(=O)(=O)c1ccc(N/C=C\C(=O)c2cccc3ccccc23)cc1 | -33.4 | 7.8 | 4.4 | 2414 | 5.2 | 10.1 | 10.7
12 | Clc1ccc(CN2CCCCCC2)cc1Cl | -21.6 | 2.4 | 4.0 | · | 5.5 | 1.7 | -5.4
13 | Cc1nnc(NC(=O)C2CC(=O)N(c3ccc4c(c3)OCCO4)C2)s1 (configuration not stated) | -3.0 | 7.6 | 1.2 | 4064 | · | 5.8 | 3.4
14 | CCN(CC)c1ccc(NC(=S)NC(=O)c2ccco2)cc1 | -50.5 | 6.1 | -16.4 | 4887 | 3.2 | 1.6 | 11.7
15 | Cc1ccc(CC(=O)N2CCN(c3ccccc3F)CC2)cc1 | -9.0 | -0.8 | 6.2 | 2176 | -5.8 | 14.8 | 8.3
16 | COc1cccc(/C=N/NC(=O)c2c(-c3ccccc3)noc2C)c1OC | -12.2 | · | · | 5734 | 2.0 | · | ·
17 | COc1ccc(CN(C)C(=O)CNC(=O)c2cccs2)c(OC)c1 | -20.9 | -1.6 | 4.0 | 6074 | · | 12.8 | 0.1
18 | CC(C)C(=O)Nc1ccc2c(c1)nc1n2CCSC1 | -8.7 | -3.9 | 0.7 | 16136* | 5.9 | 4.5 | 11.4
19 | CCOC(=O)C(C)Oc1cccc2c(=O)n(CC(=O)Nc3cccc(OC)c3)ccc12 (configuration not stated) | -23.6 | -9.2 | -13.8 | 5377 | 5.2 | 3.7 | 11.8
20 | O=C(NN=Cc1coc2ccccc2c1=O)c1ccccc1Br | · | 2.8 | 3.6 | · | · | -0.1 | 5.6
21 | CC1Cn2c(nc(=O)c3c2NCN(CCc2ccccc2)C3)S1 (configuration not stated) | -17.2 | 0.7 | 2.2 | 3785 | -15.6 | 3.5 | 11.7
22 | CCn1c2ccccc2c2cc(CC(N)=O)ccc21 | -20.7 | 1.2 | 5.0 | 4192 | -2.2 | 6.7 | 5.0
23 | CC(=NNC(=O)C1CCCC1)c1ccc(Cl)cc1Cl | · | 7.8 | 4.3 | · | · | 7.8 | -2.1
24 | Cc1ccc(C(=O)Nc2ccc(S(=O)(=O)Nc3ncccn3)cc2)cc1[N+](=O)[O-] | -30.5 | 2.1 | 5.0 | 3815 | 0.8 | 8.4 | 13.9
25 | NC1=NC(=O)/C(=C/c2cccs2)S1 | -70.3 | -0.5 | 0.1 | 23925* | 3.7 | 0.0 | 3.2
26 | Cc1ccccc1N=CC1=C(O)c2ccccc2C1=O | -49.1 | 12.9 | 2.7 | 3033 | -1.1 | 2.0 | 2.4
27 | O=C(NCc1ccc2c(c1)OCO2)c1cc(-c2ccccn2)nc2ccccc12 | -5.8 | 8.8 | 3.0 | 4275 | 5.2 | 7.7 | 7.2
28 | CCOC(=O)c1sc2nc3c(SCC(=O)O)cc(C(=O)c4cc(F)ccc4O)cn3c(=O)c2c1C | -7.8 | -3.6 | 13.2 | 8032 | 0.3 | 3.8 | 8.3
29 | CC(=O)n1cc(C=NNC(N)=S)c2ccccc21 | · | -0.5 | 4.8 | · | · | · | ·
30 | CCc1ccc(-c2cc(C)no2)cc1S(=O)(=O)N1CC(=O)Nc2ccccc21 | -1.5 | -4.8 | 8.4 | 4339 | -3.7 | 8.7 | 9.4
31 | O=C(COc1ccccc1Cl)Nc1cccc(S(=O)(=O)NC2=NCCCCC2)c1 | -23.4 | -5.4 | 4.7 | ? | 4.9 | 5.4 | -1.5
32 | Cc1ccc(OCCNC(=O)c2ccc(C)cc2)cc1 | -20.1 | -2.0 | -1.5 | 3404 | 7.8 | -6.9 | 1.8
33 | COc1ccc(C(=O)COC(=O)c2nn(C)c(=O)c3ccccc23)c(OC)c1 | -19.8 | 13.2 | 6.5 | 4380 | -4.4 | 0.4 | -1.1
34 | CCOC(=O)C1CCCN(C2=NC(=O)/C(=C/c3ccc(OC)cc3OC)S2)C1 (configuration not stated) | -27.1 | 11.6 | 5.5 | 4599 | -5.3 | -12.6 | 6.1
35 | CC(=O)C1=C(C)NC(=O)NC1c1cccc([N+](=O)[O-])c1O (configuration not stated) | -23.2 | 26.3 | 13.6 | 4565 | -10.2 | 4.1 | 9.8
36 | Cc1ccccc1C(=O)Nc1nnc(-c2cccnc2)o1 | 3.9 | -3.2 | 6.1 | 3370 | 5.2 | 13.1 | 6.3
37 | CC(=NNC(=O)c1ccc(Cl)c(Cl)c1)c1ccccn1 | · | 16.9 | 51.7 | · | · | 18.2 | 14.1
38 | CN(C)c1ccc(/C=N/NC(=O)C(=O)/C=C2\NC3(CCCC3)Cc3ccccc32)cc1 | -16.7 | · | · | 9817 | -18.9 | · | ·
39 | CCc1ccc(C(=O)NCc2cnn(C)c2)s1 | -13.6 | 1.5 | 7.4 | 5190 | -3.2 | 0.5 | 11.3
40 | Cc1ccc(S(=O)(=O)N2CCOCC2)cc1C(=O)N1CCOCC1 | -25.6 | 6.5 | 0.7 | 3358 | -7.0 | 5.1 | 2.2
41 | CCOc1ccc(Cl)cc1CNCCc1ccc(F)cc1 | -25.3 | 4.1 | 2.6 | 4003 | 2.2 | 8.4 | 13.5
42 | C/C(=N\NC(=O)c1cccnc1)c1nnn(-c2nonc2N)c1C | -6.1 | · | · | 4390 | 9.4 | · | ·
43 | O=C(NCc1ccccc1)NC1(C(=O)N2CCN3CCCC3C2)CCCCC1 (configuration not stated) | -12.3 | 0.1 | -8.7 | 2842 | 2.0 | 13.3 | 2.4
44 | COc1cccc(/C=N/NC(=S)NCCc2ccccc2)c1 | -5.0 | · | · | 6382 | -0.1 | · | ·
45 | CC(/C=N/n1c(-c2cccnc2)n[nH]c1=S)=C\c1ccco1 | -12.7 | · | · | 6029 | -3.7 | · | ·
46 | CCOc1cc(C(=O)Nc2ccc3c(c2)OCO3)ccc1OCCOc1ccccc1Cl | -20.7 | 3.9 | 6.7 | 4885 | -19.1 | 13.5 | 2.5
47 | CC(C)NC(=S)N=Nc1c(O)[nH]c2ccc(C(C)C)cc12 | -10.8 | -21.3 | -1.9 | 2042 | 0.3 | 12.9 | 2.8
48 | C/C(=N\OC(=O)NC(C)C)c1sc(-c2ccccc2)nc1C | -60.6 | · | · | 4325 | 8.0 | · | ·
49 | CCOc1ccccc1C(=O)NC1CC2CCCC(C1)N2Cc1ccc(C)cc1 (configuration not stated) | 1.0 | 5.6 | 0.4 | 3817 | 8.9 | 8.1 | 6.1
50 | O=C(Nc1nnc(-c2ccc(Cl)cc2)o1)Nc1ccccc1F | -12.3 | -4.1 | 5.2 | 3850 | -2.1 | 7.3 | 7.6

Going on with the list:
no. | Compound | PrP 5UTR inh | Sa ugtP lethal | Sa RN4220 lethal | Autofluor counter | BJeLR lethal | Mtb hypoxia rep | Mtb hypoxia rep growth
51 | CSc1nc(N)nc2c1ncn2CC(=O)NCc1ccccc1 | -18.8 | 2.6 | 2.6 | 3816 | · | -8.1 | -0.3
52 | O=C(Nc1cccnc1N1CCOCC1)c1cc2ccccc2oc1=O | -15.1 | 8.2 | 4.2 | 3718 | -0.6 | · | ·
53 | CN1C(=O)N(C)C2C1N(C)S(=O)(=O)N2C (configuration not stated) | -22.0 | -9.3 | -17.8 | 3350 | 2.4 | 8.9 | 1.9
54 | COc1cccc(-c2cc(C(=O)NCc3ccc(Cl)cc3)no2)c1 | 3.1 | -7.8 | 1.1 | 10994 | 1.0 | 9.4 | 1.9
55 | COc1ccc(-c2cc(CCC(=O)N3CCN(c4cc(C)ccc4C)CC3)on2)cc1 | -25.6 | 17.1 | 7.4 | 3582 | · | -10.4 | -0.3
56 | COC(=O)C1C2CC(C(Br)C2Br)C1C(=O)O (configuration not stated) | -62.7 | 2.8 | 1.4 | 3638 | · | 9.2 | 9.8
57 | NC(=S)N/N=C/c1ccc(-c2cc(Cl)c(Cl)cc2Cl)o1 | -35.3 | · | · | 4619 | -4.8 | · | ·
58 | N/C(CC(=O)NCCOc1ccccc1)=N\O | -5.9 | · | · | 10249 | 1.8 | · | ·
59 | CC1CN(C(C)CO)C(=O)Cc2cc(NC(=O)CCC(F)(F)F)ccc2OC1CN(C)S(C)(=O)=O (configuration not stated) | · | -0.6 | 7.6 | · | · | 19.3 | 7.7
60 | Cn1c(=O)[nH]c(=O)c2c1nc(Br)n2Cc1cccc(Br)c1 | -11.6 | 2.6 | 1.4 | 4312 | 7.8 | -0.5 | -6.9
61 | O=C(CNc1cccc(C(F)(F)F)c1)NN=Cc1ccccc1C(=O)O | · | 2.0 | 16.2 | · | · | -4.4 | 11.3
62 | CCN1CCN(c2ccc(S(=O)(=O)N3CCCCC3)cc2NC(=O)c2cccc(OC(F)F)c2)CC1 | 8.4 | 2.3 | 3.8 | 5860 | -7.3 | 2.0 | 6.4
63 | Cc1ccc(NC(=O)CN2C(=O)S/C(=C\c3ccc(OCC(=O)O)c(Br)c3)C2=O)cc1 | -48.6 | 44.3 | 7.4 | 3363 | -6.4 | -0.8 | -0.5
64 | CCCCNC(=O)c1ccc(/C=C2\Oc3ccccc3N(C)C2=O)cc1 | -4.9 | 2.8 | 3.9 | 3802 | 4.2 | -5.2 | -9.3
65 | CC(OC(=O)CCCN=C1NS(=O)(=O)c2ccccc21)C(=O)c1ccccc1 (configuration not stated) | -43.4 | 2.0 | 2.5 | · | 2.6 | 2.4 | 3.9
66 | CCc1ccc2nc(N(CCCN(C)C)C(=O)c3ccc4c(c3)OCCO4)sc2c1 | 3.8 | 3.5 | -3.9 | 6086 | 6.8 | 5.5 | 12.6
67 | Cc1nn(S(=O)(=O)c2ccc(C(C)(C)C)cc2)c(C)c1S(=O)(=O)N1CCOCC1 | -3.3 | 2.8 | 1.6 | 6082 | 8.6 | -1.1 | 6.6
68 | O=C(NNc1ccc(O)cc1)c1ccc(Br)cc1 | -2.8 | 91.2* | 22.1 | 2081 | -4.2 | 3.7 | 5.5
69 | CC1CCCCN1CC(=O)Nc1ccc2c(c1)OCO2 (configuration not stated) | -9.8 | 3.1 | 3.7 | 3598 | · | 6.0 | 4.8
70 | CC1CN(C(C)CO)C(=O)c2cccc(NS(=O)(=O)c3cccs3)c2OC1CN(C)C(=O)NC1CCCCC1 (configuration not stated) | · | 1.7 | 4.9 | · | · | 13.0 | 4.9

Rows were taken by chance, and some 4% of all compounds hit somewhere here.
